Bioassay records deposited in PubChem by ICCB-Longwood Screening Facility, Harvard Medical School.
Anaer choline gr: growth inhibitors of anaerobic choline-fed gram-negatives, minimal medium, absorbance. 55,000 tested, 0.2% active. AID 1963822, 2024. Gram-negative bacterium anaerobic choline minimal medium; active compounds read low; many inactives read as strong as hits in the columns shown. calls only;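 active = growth z-score on choline under -2 at 7 or 20 h with little or no fall on glycerol, limits in tiers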;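 also: stock transfer was 300 nL into about 50 µL; the organism is E. coli; final concentration not given here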
Anaer choline gr early: recorded beside Anaer choline gr, whose call it bears; z-score; measured here: choline growth z-score, timepoint 1;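 score of optical density at 7 h as mean of two plates; lower means less growth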
Starred values were filed as active, the others as inactive; i = inactive; + = active, no number; & = joins results of further samples. The list is partial; count on the stated rates, not on these rows.

Every second line gives: Anaer choline gr | Anaer choline gr early
> CC1=C(c2ccc(C)c(C)c2)S(=O)(=O)N(CC(=O)N2CCN(Cc3ccccc3)CC2)C1=O
 : i | 0.59
> CC(C)NC(=O)CCCCn1c(=O)c2ccccc2n(CC(=O)NC2CCCCC2)c1=O
 : i | -0.83
> O=C(c1ccc(F)cc1F)N1CCC(c2nc(-c3ccc(S(=O)(=O)N4CCCC4)cc3)no2)CC1
 : i | 0.07
> CC(C)n1c(=O)c(=O)[nH]c2cc(-c3noc(-c4ccc(F)cc4)n3)ccc21
 : i | 0.02
> COc1ccc(CCNC(=O)c2ccc(CSc3nc4ccncc4[nH]3)cc2)cc1OC
 : i | 0.27
> COC(=O)C(CO)Nc1ncnc2onc(-c3ccc(F)cc3)c12 (stereo unspecified)
 : i | 0.17
> Cc1ccc(Cn2c(=O)c3ccccc3n3c(=S)[nH]nc23)cc1
 : i | 1.1
> COc1ccc(C(=O)Nc2nc(CC(=O)NCCc3ccc(OC)c(OC)c3)cs2)cc1
 : i | -0.43
> CCCc1cc(C2CCCN2C(=O)NCC(=O)OCC)no1 (stereo unspecified)
 : i | 0.01
> CC(=O)Nc1ccc2nc(N3CCC(C(=O)NC(C)C)CC3)cc(C)c2c1
 : i | -2.1
> O=C(Nc1ccc(Br)cc1F)c1nc(Nc2ccccc2)c2ccccc2n1
 : i | -0.06
> CCCCn1nnc(NCc2ccc(-c3cccc(Cl)c3)o2)n1
 : i | 0.47
> CC(C)C12CN3CC(C(C)C)(CN(C1)C3c1ccc(N(C)C)cc1)C2=O (stereo unspecified)
 : i | 0.73
> Cn1nc(C(=O)NCCN2CCC(Cc3ccccc3)CC2)c2c1-c1ccccc1OC2
 : i | -0.97
> COc1ccc(NC(=O)Cc2c(C)nn(-c3nc(-c4ccccc4)cs3)c2C)cc1
 : i | -0.41
> COc1cc(NC(=O)C2CCCN2S(=O)(=O)c2cc3c(cc2Cl)NC(=O)CO3)cc(OC)c1 (stereo unspecified)
 : i | -0.33
> Cc1[nH]cnc1CN1CCc2c(c3ccccc3n2C)C1=O
 : i | 0.26&0.69
> Cc1nc(-c2ccc(N3CCN(C(=O)Cc4ccccc4Br)CC3)cc2)no1
 : i | 2.3
> CN(Cc1ccccc1)C(=O)C1CCN(S(=O)(=O)Cc2ccccc2)CC1
 : i | 0.24
> CC(=O)n1nc(-c2ccc(C)c(C)c2)nc1N
 : i | -0.17
> CCc1nc(OCC(=O)Nc2cc(C)cc(C)c2)c2ccccc2n1
 : i | 0.44
> O=C(NC1CCCCC1)NC1CCN(C(=O)C2CCC2)C1 (stereo unspecified)
 : i | 0.84
> Cc1nc2nc3c(cn2n1)C(=O)CC(C)(C)C3
 : i | -1.8
> O=S(=O)(c1cc(-c2noc(C3CCCC3)n2)cs1)N1CCCCC1
 : i | 2.2
> COc1ccc(C2NC(=O)c3[nH]nc(-c4ccccc4)c32)cc1OC (stereo unspecified)
 : i | 0.58
> O=C1C(O)=C(c2ccccc2)C(c2ccc(F)cc2)N1Cc1ccc(Cl)cc1 (stereo unspecified)
 : i | 1.2
> CCn1c(CN(c2ccc(F)cc2)S(C)(=O)=O)nnc1SCC(=O)Nc1nc(C)cs1
 : i | 1.3
> COC(=O)c1c(-c2ccc(Cl)cc2)noc1Nc1cccc(OC)c1
 : i | 1.1
> CC(C)Nc1ncnc2onc(-c3cc(F)cc(F)c3)c12
 : i | 0.53
> Cc1nn(-c2nc3ccccc3[nH]2)c2c1C(c1ccc(F)c(F)c1)CC(=O)N2 (stereo unspecified)
 : i | -0.19

Quoted from the entries so far (three entries):
Every second line gives: Anaer choline gr | Anaer choline gr early
> COc1ccc(C2NC(=O)c3[nH]nc(-c4ccccc4)c32)cc1OC (stereo unspecified)
 : i | 0.58
> O=C1C(O)=C(c2ccccc2)C(c2ccc(F)cc2)N1Cc1ccc(Cl)cc1 (stereo unspecified)
 : i | 1.2
> CCn1c(CN(c2ccc(F)cc2)S(C)(=O)=O)nnc1SCC(=O)Nc1nc(C)cs1
 : i | 1.3

The listing continues:
Every second line gives: Anaer choline gr | Anaer choline gr early
> C=Cc1ccc(CSc2nc3c(=O)[nH]cnc3n2C)cc1
 : i | 0.01
> N[C@@H](Cc1cc(I)c(Oc2ccc(O)c(I)c2)c(I)c1)C(=O)O
 : i | 0.47
> O=C(c1cccc(N2C(=O)CCS2(=O)=O)c1)N1CCOCC1
 : i | -1.3
> Cn1c(CN(c2ccc(F)cc2)S(C)(=O)=O)nnc1SCC(=O)Nc1ccc(F)cc1F
 : i | -0.13
> COc1ccc(CCNC(=O)Cn2nc3c(N4CCCCC4)nccn3c2=O)cc1OC
 : i | 0.22
> O=C(CN1C(=O)CSc2ccc(C(=O)N3CCCC3)cc21)N1CCCCC1
 : i | 0.1
> COc1ccc(OC)c(NC(=O)N2CCCC2c2c(C)noc2C)c1 (stereo unspecified)
 : i | 1.6
> CN1C(=O)c2ccccc2Sc2cc(-c3noc(-c4ccc5c(c4)OCO5)n3)ccc21
 : i | 0.13
> CCN1CCN(c2ccc(NS(=O)(=O)c3ccc(Br)cc3)c(C(=O)O)c2)CC1
 : i | -0.79
> CCc1cccc(N2Cc3cc(Cl)ccc3OCC2=O)c1
 : i | -1.9
> Cc1ccc(CNC(=O)c2ccc(N3CCCS3(=O)=O)cc2)cc1
 : i | -1.6
> CCCCS(=O)(=O)N1CCCN(C2=NS(=O)(=O)C(c3ccccc3)=C2C)CC1
 : i | 0.68
> CN1CCN(c2ccc(NS(C)(=O)=O)cc2C(=O)O)CC1
 : i | 0.78
> O=C1CSc2ccc(S(=O)(=O)N3CCC(N4CCCCC4)CC3)cc2N1
 : i | 1
> CCNC(=O)c1snc(C(=O)NC(C)C)c1N
 : i | -1.5
> COc1cccc(N2CCN(C(=O)CCC3=NS(=O)(=O)c4ccc(C)cc4N3)CC2)c1
 : i | 0.46
> Cc1ccc(-c2c(C(F)(F)F)nn3c(NCCC(C)C)cc(C)nc23)cc1
 : i | 1.6
> O=C(NCCN1CCCCC1)C1=C2CCCN2c2ccc(F)cc2S1(=O)=O
 : i | -1.9
> Nc1ncn(C2OC(CO)C(O)C2O)c(=O)n1 (stereo unspecified)
 : i | -3.5
> COc1ccc(NC(=O)c2cccnc2)cc1NC(=O)c1ccccc1
 : i | 0.58
> O=S(=O)(NCc1nc2cccnc2n1C1CCCC1)c1ccc2c(c1)CCCC2
 : i | -0.28
> Cc1nc2ccccc2n1Cc1nnc2sc(-c3cccnc3)nn12
 : i | -0.07
> CCc1ccc(-c2[nH]c3ccccc3c2NC(=O)Nc2cccc(C(=O)OC)c2)cc1
 : i | 1.5
> CC(=O)Nc1ccc(NC(=O)CCc2c(C)nn(-c3cc(N(C)C)ncn3)c2C)cc1
 : i | 1.1
> COc1cc(NC(=O)C2CCCN2S(=O)(=O)c2ccc3c(c2)CCCC(=O)N3)cc(OC)c1 (stereo unspecified)
 : i | 1.4
> CCOC(=O)c1nc(Nc2cc(C)cc(C)c2)c2c(CC)noc2n1
 : i | -0.96
> COCCCN1CN=C(NS(=O)(=O)c2ccc(C)cc2)NC1
 : i | -0.16
> CS(=O)(=O)N1CCCc2cc(C(=O)Nc3ccc(S(N)(=O)=O)cc3)ccc21
 : i | 1.2
> Cc1nc2nc(-c3ccc(C(C)(C)C)cc3)nn2c(C)c1CC(=O)N(CCO)Cc1ccccc1
 : i | -0.32
> COc1ccc(-c2cc(C(F)(F)F)n3ncc(C(=O)NC(C)c4ccccc4)c3n2)cc1OC (stereo unspecified)
 : i | -0.59
> O=C(CC1CC1)N1CCCN(Cc2noc(-c3ccccc3)n2)CC1
 : + | -2*
> CC(C)(C)C(=O)N1CCN(Cc2noc(-c3ccccc3)n2)CC1
 : i | -0.69
> Cc1ccc(-c2nc(C(=O)Nc3ccc(C)c(F)c3)c3n2CCCCC3)cc1
 : i | 0.06
> CC(C)c1cc(Nc2cc(F)cc(F)c2)n2nc(-c3cccnc3)nc2n1
 : i | 0.39
> CCCN1CCN(c2cc(C(=O)O)c3cc(NC(=O)c4ccc(C)cc4)ccc3n2)CC1
 : i | -0.59
> Cc1cc(Br)ccc1-c1ccc(CNCCO)o1
 : i | -1.9
> Cc1nc(-c2ccc(C)c(S(=O)(=O)N3CCC(C(=O)Nc4ccc(Br)c(C)c4)CC3)c2)no1
 : i | -0.77
> Cc1nn(CC(=O)N2CCCCC2)c2ccccc12
 : i | -1.4
> CNC(=O)C1=CCN(C(=O)NC2CCCC2)CC1
 : i | 0.66
> O=C(Cc1ccsc1)N1CCC(n2nc(-c3ccccc3)oc2=O)CC1
 : i | -0.15
> CN1CCN(c2cc(-c3nc(-c4ccccc4)no3)c3ccccc3n2)CC1
 : i | -6.8
> C=CCn1cnc2c(cnn2-c2ccc(C)c(C)c2)c1=O
 : i | 0.21
> NCC(O)C1CCCCCCC1 (stereo unspecified)
 : i | 0.23
> CCOC1CCN(C(=O)CC)CC1
 : i | -0.33
> COc1ccc(-c2cc(N3CCOCC3)nc(C)n2)cc1
 : i | -1.3

Reformatted in markdown: three of the compounds above.
| SMILES | Anaer choline gr | Anaer choline gr early |
| --- | --- | --- |
| N[C@@H](Cc1cc(I)c(Oc2ccc(O)c(I)c2)c(I)c1)C(=O)O | i | 0.47 |
| O=C(c1cccc(N2C(=O)CCS2(=O)=O)c1)N1CCOCC1 | i | -1.3 |
| Cn1c(CN(c2ccc(F)cc2)S(C)(=O)=O)nnc1SCC(=O)Nc1ccc(F)cc1F | i | -0.13 |

Next part:
Every second line gives: Anaer choline gr | Anaer choline gr early
> Cc1cc(C)cc(N(CC(=O)NCc2ccc3c(c2)OCO3)S(=O)(=O)c2c(C)nn(C)c2C)c1
 : i | 0.29
> CCOc1ccc(NC(=O)Nc2ccc(-c3cc4cc(Cl)ccc4[nH]3)cc2)cc1
 : i | -1.4
> O=C(Cn1ccc2c(SCc3ccc(F)cc3)nccc21)N1CCN(c2ccccc2)CC1
 : i | -0.88
> Cn1cc(C(=O)NCCC2=CCCCC2)c(S(=O)(=O)N2CCSCC2)n1
 : i | 0.55
> CCSc1ccc2c(c1)N(CCCN1CCN(C)CC1)c1ccccc1S2
 : i | -2.5
> Cc1cccc(NC(=O)Cn2nnc(C(=O)O)c2C(=O)O)c1C
 : i | -0.76
> O=C(NCc1nc2cccnc2n1Cc1ccc(F)cc1)c1ccccc1Br
 : i | -2.4
> Cc1ccc(NC(=O)c2ccc(=O)n(CCN3CCOCC3)n2)cc1
 : i | -0.98
> CCOC(=O)c1nc(N2CCCCC2)c2c(C)noc2n1
 : i | 0.44
> Cc1[nH]c(C)c(S(=O)(=O)N2CCC(C(=O)N3CCc4ccccc43)CC2)c1C(=O)N1CCCC1
 : + | -0.9*
> CCOc1cc(CC(=O)NC(CC(C)C)c2ccccc2N2CCCCC2)ccc1C(=O)O (stereo unspecified)
 : i | -0.44
> Cc1csc(NC(=O)Cn2ccc3ccc(-c4nnc(C)o4)cc32)n1
 : i | -0.94
> NCc1c[nH]c(=S)n1C1CCc2c(F)cc(F)cc2C1 (stereo unspecified)
 : i | -1
> CC(C)(C)c1csc(-c2csc(S(=O)(=O)NCCCN3CCCC3=O)c2)n1
 : i | -0.08
> Cc1noc(Cn2c(=O)c3cc4c(cc3n(CC(=O)Nc3ccccc3F)c2=O)OCO4)n1
 : i | 0.84
> O=C(NCc1ccc(Cl)cc1)c1ccc(-c2cccnc2)cc1
 : i | 0.18
> O=S1(=O)C[C@H](N2CCC3(CC2)OCCO3)[C@@H](S(=O)(=O)c2ccc(F)cc2)C1
 : i | 0.44
> O=C(c1cc2cc(Cl)ccc2[nH]1)N1CCN(C(=O)c2c(F)cccc2F)CC1
 : i | 0.66
> COC(=O)CSc1nc2c(-c3ccccc3)c[nH]c2c(=O)[nH]1
 : i | 0.89
> CSc1ccc(-c2noc(CSc3ccc(-c4ccc(F)cc4)nn3)n2)cc1
 : i | 0.86
> Cc1ccc(Cn2cccc(S(=O)(=O)N3CCC(C)CC3)c2=O)cc1
 : i | -0.95
> CCN(CC)S(=O)(=O)c1ccc2c(c1)nc(CN(C)S(=O)(=O)Cc1ccccc1)n2C
 : i | 0.31
> CCOc1ccc(CN(Cc2ccc(OC)cc2)S(=O)(=O)c2ccc(S(=O)(=O)N3CCCCC3)cc2)cc1
 : i | 1.1
> CCOC(=O)C(CCc1ccccc1)NC1CCc2ccccc2N(CC(=O)O)C1=O (stereo unspecified)
 : i | 0.37&0.7
> O=S(=O)(c1ccc(F)c(Cl)c1)N1CCN(c2cc(-c3cccc(F)c3)ncn2)CC1
 : i | 1.1
> O=C(CN1C(=O)CSc2ccc(C(=O)N3CCCC3)cc21)NCc1ccc(Cl)cc1
 : i | -0.91
> COc1ccc(N2CC(NC(=O)Nc3nc4c(C)cccc4s3)CC2=O)cc1 (stereo unspecified)
 : i | 0.07
> CCSc1nn2c(=O)cc(CSc3nc(C)cc(=O)[nH]3)nc2s1
 : i | -0.6
> CC(Sc1nc2ncccc2[nH]1)C(=O)N(C)c1ccc(F)cc1 (stereo unspecified)
 : i | -0.34
> Cc1cccc(C(=O)N2CCc3ccc(CNC(=O)NC(C)(C)C)cc32)c1
 : i | 0.26
> CN(C)c1ccc(NC(=O)C(C)(C)C)c(C(=O)O)c1
 : i | 0.36
> Cc1cc(NC(=O)CCc2nc(CSc3nc4cc(Cl)ccc4o3)no2)no1
 : i | 0.33
> O=C(NC(c1ccccc1)c1nnc(-c2ccccc2)o1)c1c(F)cccc1F (stereo unspecified)
 : i | 0.08
> CCOc1ccc(NC(=O)c2noc3ncnc(N4CCOCC4)c23)cc1
 : i | -0.12
> Oc1ccc(Cl)cc1-c1ccnc2cc(-c3ccccc3)nn12
 : i | -0.26
> Cc1ccc(C(=O)N2CCc3cc(CNS(=O)(=O)c4ccc(F)c(Cl)c4)ccc32)cc1
 : i | 1.2
> Cc1ccc(-c2onc3ccc(C(=O)NC4CCN(Cc5ccccc5)CC4)cc23)cc1
 : i | -0.15
> CCCc1nc2c(C)cc(-c3nc4ccccc4n3C)cc2n1Cc1ccc(-c2ccccc2C(=O)O)cc1
 : i | -0.43&0.68&0.13
